# RanGTP-Impb inh = inhibitors of RanGTP-importin-beta interaction, primary screen, biochemical, FRET, CFP-Ran, YFP-importin-beta, homogeneous | cell-free CFP-Ran/YFP-importin-beta FRET ratio | inhibition, % (test concentration not listed) | hit rate 1.1% among 300,000 | Ran GTPase (GTP-bound) - importin-beta complex | AID 2216, 2009;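 active means most replicates above 15%; inconclusive means exactly half above 15%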;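 further: 0% = DMSO wells and 100% = Ran loaded with GDP instead of GTP; wells of about 40 µL received 100 nL stock; the first replicate is given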
# Calb FLC = C. albicans growth inhibition with fluconazole, primary screen, CaCi-2 strain, Alamar Blue fluorescence; C. albicans CaCi-2 (fluconazole-resistant clinical isolate) + fluconazole, 48 h; AID 1979, 2009; hit rate 0.57% among 300,000; growth inhibition, % (concentration not given with the values);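 active means most replicates above 75%; inconclusive means exactly half above 75%; inactive means most below 75%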;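 further: all wells also contain fluconazole at 8 µg/ml as a sub-toxic cotreatment; 0% = median of DMSO wells and 100% = median of geldanamycin control wells; wells of about 8 µL received 7.5 nL stock; the first replicate is given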
# ALR inh = inhibitors of human ALR sulfhydryl oxidase, primary screen, biochemical, H2O2 detection, HRP-luminol luminescence, single point. FAD-linked sulfhydryl oxidase ALR (Homo sapiens), P55789. purified ALR, DTT oxidation. inhibition, % (concentration not given with the values). hit rate 3.8% among 290,000;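 active means mean and each replicate at 75% or more; inconclusive means only one of the two met; inactive means neither met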;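 further: stock transfer was 7.5 nL into about 7.5 µL; 0% = neutral wells and 100% = wells with inactivated enzyme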
# LANA-H2B inh = blockers of LANA interaction with H2A/H2B – biochemical, FP readout, HTS, primary screen | Protein LANA1 (Human herpesvirus 8 type P (isolate GK18)), Q9QR71 | cell-free LANA-H2A/H2B peptide, fluorescence polarization | inhibition, % (test concentration not listed) | hit rate 0.6% among 320,000; in the data active means inhibition mostly above about 10%, no sharp cut-off; inactive means mostly below about 6.7%;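 further: stock transfer was 7.5 nL into about 10 µL; 0% = median of vehicle wells and 100% = median of positive control wells; one replicate is shown; the record names a cut of 25% in any replicate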
# Target sequence (Q9QR71 whole entry, looked up): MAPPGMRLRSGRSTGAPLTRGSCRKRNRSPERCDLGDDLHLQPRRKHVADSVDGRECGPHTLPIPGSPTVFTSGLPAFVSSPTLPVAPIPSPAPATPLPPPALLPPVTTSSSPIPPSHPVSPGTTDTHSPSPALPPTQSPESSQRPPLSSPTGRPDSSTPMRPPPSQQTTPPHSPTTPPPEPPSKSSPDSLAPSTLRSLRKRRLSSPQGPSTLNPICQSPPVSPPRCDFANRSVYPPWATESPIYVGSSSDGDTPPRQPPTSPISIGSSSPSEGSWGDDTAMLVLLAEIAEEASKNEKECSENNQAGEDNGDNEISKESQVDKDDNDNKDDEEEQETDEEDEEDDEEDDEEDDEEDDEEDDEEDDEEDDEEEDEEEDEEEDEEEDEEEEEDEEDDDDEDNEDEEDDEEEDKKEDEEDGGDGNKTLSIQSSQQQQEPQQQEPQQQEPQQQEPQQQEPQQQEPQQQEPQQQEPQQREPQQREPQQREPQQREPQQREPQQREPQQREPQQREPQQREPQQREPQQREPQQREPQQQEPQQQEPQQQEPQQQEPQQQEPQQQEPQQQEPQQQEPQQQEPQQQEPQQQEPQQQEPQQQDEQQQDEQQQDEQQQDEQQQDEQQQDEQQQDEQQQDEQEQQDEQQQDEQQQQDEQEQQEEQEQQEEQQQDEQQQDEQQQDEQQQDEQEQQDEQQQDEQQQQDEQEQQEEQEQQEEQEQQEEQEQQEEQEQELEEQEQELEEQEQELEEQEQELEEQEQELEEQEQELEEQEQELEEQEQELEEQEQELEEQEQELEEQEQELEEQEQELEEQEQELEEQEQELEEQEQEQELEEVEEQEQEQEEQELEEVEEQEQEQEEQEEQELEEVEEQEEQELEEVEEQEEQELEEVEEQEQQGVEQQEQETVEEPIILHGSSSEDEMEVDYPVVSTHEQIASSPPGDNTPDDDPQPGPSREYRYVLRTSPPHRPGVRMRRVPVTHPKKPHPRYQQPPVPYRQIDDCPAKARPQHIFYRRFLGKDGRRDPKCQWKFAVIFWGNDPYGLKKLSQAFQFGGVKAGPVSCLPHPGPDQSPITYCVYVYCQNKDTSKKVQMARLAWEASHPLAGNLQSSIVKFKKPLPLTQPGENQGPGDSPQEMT
# Vif TR-FRET = inhibitors of Vif binding to APOBEC3G peptide, primary screen, biochemical, TR-FRET, GST-Vif 1-94, biotin-A3G peptide, dose response retest (AID 1117319); hit rate 0.57% among 260,000; one-dose inhibition, %; IC50 in µM for titrated hits; TR-FRET GST-Vif / biotin-A3G peptide binding; higher % means a stronger effect; test concentration not given here; strong numbers were not always called active; Virion infectivity factor (Human immunodeficiency virus type 1 group M subtype B (isolate …;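 active means above the screen mean plus three standard deviations and confirmed in dose response; inconclusive means results disagree or hit not tested in dose response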;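 further: Vif residues 1-94 fused to GST binding biotinylated APOBEC3G peptide 110-148; 0% = full assay without inhibitor and 100% = GST in place of GST-Vif; retest series ran down from 100 µM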
# B2AR ag = beta2AR agonists driving receptor internalization, primary screen, cell-based, FAP fluorogen, flow cytometry | Beta-2 adrenergic receptor (Homo sapiens), P07550 | AID 504454, 2011 | response, % (test concentration not listed) | hit rate 0.43% among 340,000 | Am2.2-beta2AR cells; reference of the scale not given here;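 active means response above a set limit, near 3 SD of response in nonfluorescent compounds, cut at about 42% in these data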;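 further: stock transfer was 100 nL into about 11 µL; a reference agonist was the positive control; negative values mostly stem from fluorescent compounds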
# HNF4A DNA FP = change in binding of human HNF4A to DNA, primary screen, biochemical, fluorescence polarization, FITC-DNA; Hepatocyte nuclear factor 4-alpha (Homo sapiens), P41235; 1 h; activity change, % at 10 µM; hit rate 0.3% among 360,000; AID 1224865, 2016; in the data active means activity change above about 30%, passing the limit was not always enough;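 further: controls were the assay level and a saturating level of protein; the project sought stronger binding though the title names inhibitors; some compounds called inactive have numbers as strong as hits; positive values seem to mean higher polarization but the record does not say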
# Starred values were filed as active, the others as inactive; ? = inconclusive; / = no result given; + = active, no number.
# Every second line gives: RanGTP-Impb inh, Calb FLC, ALR inh, LANA-H2B inh, Vif TR-FRET, B2AR ag, HNF4A DNA FP
OC(c1ccc(Cl)cc1Cl)C(Cc1cccnc1)n1cncn1 (configuration not stated)
  -0.8, -3, -9, 5.0, 1%, 2, 1.8
O=C(O)C1C2CCC(C2)C1C(=O)NCCc1ccc(F)cc1 (configuration not stated)
  21*, -6, 0, 4.6, 3%, -1, 1.0
COc1ccc(NC(=O)C(NCC(C)C)c2ccccc2)cc1Cl (configuration not stated)
  2.3, -5, -2, 0.4, 15%, 7, -3.4
O=C(NCc1ccccc1F)C1CCCN1C(=O)Nc1ccc(Cl)cc1 (configuration not stated)
  -1.6, -3, -1, -5.5, -6%, -1, 3.6
CC(C)C(NC(=O)c1ccccc1F)C(=O)Nc1nccs1 (configuration not stated)
  0.2, -5, -10, 9.2, -8%, 2, -1.9
CCOc1ccc(NC(=O)CSc2nnc(Cn3c(=O)sc4ccccc43)n2C)cc1
  /, /, -2, 1.0, ?, -3, 2.2
Cc1ccc(-c2nc(SCC(=O)c3c(N)n(C4CC4)c(=O)[nH]c3=O)n[nH]2)cc1
  /, /, 49, -1.4, /, 4, 2.8
CCC(C)(C)NC(=O)CN(Cc1ccccc1)C(=O)CCC(=O)Nc1nccs1
  -2.1, 9, /, -2.7, -1%, 3, 3.7
CNC(=S)SCCOc1ccccc1
  -1.2, 2, 47, -0.6, 0%, -4, 2.5
CC(=O)c1ccc(OCC(O)CN2CCOCC2)cc1 (configuration not stated)
  1.6, 1, -23, -8.6, 1%, -3, -0.9
COc1cccc(-c2cc(C(F)(F)F)nc(N3CCOCC3)n2)c1
  0.5, 1, 3, -3.2, 5%, 8, 3.0
CN1C(=O)CC(C(=O)O)SC1=Nc1cccc(C(F)(F)F)c1 (configuration not stated)
  1.7, -2, -2, 0.2, 2%, 3, -4.2
O=S1(=O)CC(O)C(N2CCCCC2)C1 (configuration not stated)
  6.1, -2, -10, -3.1, 4%, 4, -0.3
Cc1nc(N2CCCCCC2)c2ccccc2n1
  -0.4, 10, /, 1.8, /, 1, 4.2
CCC(=O)Nc1nc(-c2ccc3c(c2)CC(C)N3S(C)(=O)=O)cs1 (configuration not stated)
  -5.0, -15, 2, 0.6, -4%, -1, -2.3
Cc1ccc(NC(=O)C2CC(=O)N/C(=N/NC(=O)c3ccc(C)cc3)S2)cc1 (configuration not stated)
  4.2, 1, 12, 0.6, 19%, -8, -0.7
CC(C)Cc1nnc(NC(=O)CCC(=O)N2CC(C)CC(C)C2)s1 (configuration not stated)
  ?, 1, -2, 5.1, /, 5, 0.9
O=C(CCc1nc2ccccc2c(=O)[nH]1)Nc1ccc(F)cc1
  1.5, -8, -13, 2.4, -3%, -3, 2.0
COc1ccc(/C=N/NC(=O)CNC(=O)c2ccncc2)cc1
  3.0, -1, -8, -1.1, /, 3, -1.6
O=C(O)c1cccc(S(=O)(=O)N(Cc2ccccc2)c2cccc(C(F)(F)F)c2)c1
  0.7, 7, 7, -9.7, /, 6, 2.5
CC(C)C(=O)NNC(=O)CN1CCN(c2nc(-c3ccccc3)cs2)CC1
  1.4, -20, 23, -0.6, -1%, -1, 1.9
CC(C)(C)/C(O)=C/c1nc2ccccc2oc1=O
  5.2, 3, 0, 4.3, 7%, 9, 1.8
Cc1ccc(C)c(-c2cc(C(=O)NNC(=S)NCC(C)C)c3ccccc3n2)c1
  4.7, -4, -3, 5.2, 16%, 3, -1.0
CN1CCN(C(=O)c2cc(Cl)ccc2NC(=O)c2ccc(Cl)cc2Cl)CC1
  ?, -4, -5, 5.4, 3%, -3, -0.1
CCOc1cccc(C(=O)Nc2ccc(NC(=O)c3ccccc3)c(C)c2)c1
  -1.8, 2, /, 0.6, 2%, -4, -0.7
CN1CCN(c2nc3c(c(=O)n(C)c(=O)n3C)n2Cc2ccc(F)cc2)CC1
  1.3, -30, -36, -9.2, /, 0, -4.5
COc1cccc(CNC(=O)C2CCCN(c3cnccn3)C2)c1 (configuration not stated)
  0.7, 2, -4, -1.9, /, -8, -2.4
Oc1ccc(Cl)cc1C1=NCCNC(C(F)(F)C(F)F)=C1
  -4.7, 3, 99*, 3.6, 4%, -2, -2.4
O=C(Nc1ccc(N2CCOCC2)cc1)C1CCCN(S(=O)(=O)c2cccc(C(F)(F)F)c2)C1 (configuration not stated)
  -2.7, -11, -2, -0.3, 3%, 1, 3.0
Nc1cc(C(=O)N2CCN(c3ccc([N+](=O)[O-])cc3)CC2)ccc1N1CC2CC(C1)c1cccc(=O)n1C2 (configuration not stated)
  6.6, -3, -6, 2.9, /, 0, 4.8
COc1ccc(Br)cc1CNCCSc1nnnn1C
  1.7, 4, -27, -0.4, 1%, 4, 5.6
CCOC(=O)C1CCN(C(=O)CC2(CC(=O)O)CCCC2)CC1
  1.4, -6, /, 5.0, /, 5, -3.9
COc1ccc(/C=C/C(=O)c2ccc3c(c2)OCCO3)cc1[N+](=O)[O-]
  -0.9, 39, 36, -2.7, 3%, 10, 2.7
COC(=O)c1cc(NC2c3ccccc3C(=O)N2Cc2ccco2)cc(C(=O)OC)c1 (configuration not stated)
  /, /, 3, 1.9, -1%, -5, -0.4
O=C(CC1NCCc2ccccc21)Nc1ccccc1Cl (configuration not stated)
  -5.1, -2, -8, -0.1, -7%, -7, -1.6
CC(C)OCP(=O)(c1ccccc1)c1ccccc1
  ?, -9, 0, -2.4, -3%, 6, 1.5
Cc1nn(Cc2cccc3ccccc23)c(C)c1NC(=O)c1cccnc1
  0.3, -18, -5, 0.7, -3%, 8, -3.1
CCN(CCC#N)c1ccc(N2C(=O)CCCC2=O)cc1[N+](=O)[O-]
  1.9, -4, 6, -0.8, 3%, -5, -2.1
CCn1c(Cc2cccs2)nnc1SCC(=O)Nc1ccc(OC)c(OC)c1
  ?, -8, /, 1.2, 0%, 2, 5.2
COc1ccc(CC(=O)N/N=C(\C)c2cccc(NC(=O)C3CC3)c2)cc1
  8.7, 2, /, /, /, 7, 1.7

# Ordered by value in LANA-H2B inh (low to high): 3 from the list above.
structure	RanGTP-Impb inh	ALR inh	LANA-H2B inh	Vif TR-FRET	B2AR ag
Cc1ccc(-c2nc(SCC(=O)c3c(N)n(C4CC4)c(=O)[nH]c3=O)n[nH]2)cc1	/	49	-1.4	/	4
Cc1ccc(NC(=O)C2CC(=O)N/C(=N/NC(=O)c3ccc(C)cc3)S2)cc1 (configuration not stated)	4.2	12	0.6	19%	-8
CC(C)(C)/C(O)=C/c1nc2ccccc2oc1=O	5.2	0	4.3	7%	9

# Continuation.
# Every second line gives: RanGTP-Impb inh, Calb FLC, ALR inh, LANA-H2B inh, Vif TR-FRET, B2AR ag, HNF4A DNA FP
COc1cc(C(C)=O)ccc1OCC(O)CN1CCN(c2cc(C)cc(C)c2)CC1 (configuration not stated)
  -2.4, 1, 12, 6.7, ?, -1, -1.9
CC(C)C(O)P(=O)(OCc1ccccc1)c1ccc(N(C)C)cc1 (configuration not stated)
  -0.7, -21, 5, -2.2, 18%, -7, -4.3
CCC(C)C(NC(=O)C1CCC(C)CC1)C(=O)NC(CCSC)C(=O)OC (configuration not stated)
  6.9, -38, 0, 1.2, ?, 17, 2.9
COc1ccc(CNCc2cc(OC)ccc2OC)cc1
  -2.1, 0, /, 0.7, /, -10, 3.7
COc1ccc(/C=C/C(=O)OCC(=O)Nc2cc(C(N)=O)cc(C(N)=O)c2)cc1
  1.6, -24, -12, 0.8, 13%, -13, -10
Cc1ccccc1C(=O)Nc1cc(C(F)(F)F)ccc1-n1cncn1
  /, /, 2, -1.0, /, -8, -1.0
O=C(NCCCn1ccnc1)c1ccc(S(=O)(=O)N2CCOCC2)cc1
  8.8, -7, 0, 1.7, 1%, 9, -0.6
CCCc1cc(N2CCCC(C(=O)Nc3ccc(OC)cc3OC)C2)n2ncnc2n1 (configuration not stated)
  0.5, -13, -7, -2.3, ?, -14, 1.4
COCCNc1cnn(-c2ccccc2)c(=O)c1Cl
  3.3, -9, 1, -4.1, -2%, 4, -2.0
CN(C)CCN(Cc1cc2cc3c(cc2[nH]c1=O)OCO3)C(=S)NCc1ccco1
  0.3, 12, -23, 0.2, 0%, 3, 3.2
COc1ccc(NC(=O)c2cn(CCC#N)nc2-c2cc3ccccc3o2)cc1
  -3.1, 6, 3, 3.6, /, 16, 3.9
COc1ccccc1CN1CC(C(=O)N(C)CCCn2nc(C)cc2C)CCC1=O (configuration not stated)
  3.2, -2, 0, 0.6, 6%, -2, 0.2
COc1ccc(OCc2cc(C(=O)N3C[C@H]4CC[C@H]3C4)no2)c(Cl)c1
  9.2, -9, -7, -1.0, /, -5, 0.2
COC(=O)c1ccc(/C=N/n2cnnc2)cc1
  1.5, 3, -2, 4.5, -2%, 4, -2.0
CC(C(=O)c1ccc(-c2ccccc2)cc1)[n+]1ccccc1 (configuration not stated)
  -1.2, 4, -7, -0.2, ?, 3, 0.9
COc1cc(Cl)cc(NC(=O)CCN2CCN(C)CC2)c1
  4.4, 13, -17, -0.2, 4%, -1, -1.1
Cc1cc(=O)oc2cc(OCC(=O)c3ccc4c(c3)NC(=O)CO4)ccc12
  0.5, 5, -4, -2.2, -5%, 42, 161*
Cn1cc([N+](=O)[O-])c(C(=O)Nc2cnn(Cc3ccc(F)cc3)c2)n1
  1.1, 4, /, /, 14%, 1, 0.7
Cc1ccc2cc(CN(Cc3ccco3)C(=S)NCC3CCCO3)c(=O)[nH]c2c1 (configuration not stated)
  2.4, -13, 0, 7.8, 6%, -9, -0.5
N#C/C(=N\O)c1nc2ccccc2s1
  5.0, 25, /, 4.8, /, 4, 6.4
CCc1c(C)nc(SCc2ccccn2)[nH]c1=O
  -0.7, -4, -7, -5.4, 5%, -4, -3.8
CCCNC(=O)c1nnsc1S(=O)c1ccc(Cl)cc1 (configuration not stated)
  12, 2, /, /, -18%, 50*, 1.1
C=CCn1c(=O)c2ccccc2n2c(SCC(=O)NC(C)C)nnc12
  -0.5, 2, /, /, -10%, -2, -1.4
CCCCNC(=S)N1CCn2cccc2C1c1ccccc1 (configuration not stated)
  -4.2, 3, 8, -14, /, 5, 0.3
O=C(N/N=C/c1sc2ccccc2c1O)c1cccc2ccccc12
  7.2, 88*, 36, +, /, 8, 75*
CCSc1n[nH]c2nc3c(c(=O)n12)C1(CCCC1)Cc1ccccc1-3
  12, -5, 2, 2.7, -2%, -7, -3.2
COc1ccc(C)cc1NC(=O)NC1CCN(Cc2ccccc2)CC1
  ?, 38, -6, 9.1, 0%, 11, -1.8
O=C1c2ccccc2-c2cccnc21
  -0.5, -31, /, -5.4, 3%, -4, 1.2
COc1ccccc1N(CC(=O)Nc1ccccc1C)S(C)(=O)=O
  -0.2, 4, -7, 9.9, -7%, 4, 0.3
COc1ccc(-n2c(NC(=O)c3ccco3)c(C#N)c3nc4ccccc4nc32)cc1
  128*, 31, 29, -5.4, 10%, 2, 32
Cc1coc2cc3oc(=O)c(CCC(=O)NC4CC4)c(C)c3cc12
  -0.2, 6, 32, 4.3, /, -13, 0.2
COc1ccc(C(=O)c2coc3ccc(O)c(CN(C)C)c23)cc1
  -2.4, -10, 1, -3.2, 19%, -1, -0.9

# Compound activity: PubChem, several laboratories
